# Source: PubChem BioAssay
# Giardia kill: Giardia lamblia killing; activity change, % at 7.66 µM, hits read low; AID 540267; 340,000 tested, 0.15% active; Giardia lamblia trophozoite viability; in the data active means activity change below about -80%; inconclusive means between about -30% and that limit;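 further: parasites exposed to compound for two days anaerobically before the ATP read; on the % scale 0 is the no-effect control and ±100 the full control effect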
#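 ATP-content bioluminescence gauges trophozoite survival. Cells (100/well) receive compound and incubate anaerobically for 48 hrs at 37 deg C; detection reagent follows for 15-30 min at room temperature.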
# Gal4-VP16 FLuc: Gal4-VP16 reporter inhibition counter-screen | Drosophila S2 Gal4-VP16 UAS-luciferase, luminescence, 20 h | Potency, µM (highest dose often 53.6 µM), without a hit: at the highest dose activity, negative = inhibition, actives largely listed as inhibitors | 310,000 tested, 3.5% active | AID 2546;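 further: Gal4-VP16 expression switched on by copper sulfate through the metallothionein promoter; potency means the concentration at half of the fitted maximal effect; on the % scale 0 is the no-effect control and ±100 the full control effect; nearly all actives have a fitted effect of over 50% in size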
# p53 reactivator: mutant p53 re-activation in reporter cells. Potency, µM (top dose mostly 92.2 µM), without a hit: at the highest dose activity change, positive = activation, usual class: activators. 320,000 tested, 0.063% active. H1299 p53-A138V BP100-luciferase reporter, luminescence, 24 h. AID 504706; further: potency means the concentration at half of the fitted maximal effect; % of control where 0% means no effect; nearly all actives have a fitted effect of over 45% in size
#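 p53-null H1299 cells stably carrying temperature-sensitive p53-A138V and a BP100-luciferase reporter were pinned with compounds (4-point, 1:5 series) and held 24 hrs at 37 deg C. Luminescence was read 10 min after detection reagent.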
# Rab9 promoter act: Rab9 promoter activation. 320,000 tested, 2.8% active. Potency, µM (titrated, usually from 9.22 µM), without a hit: at the highest dose activation, negative = inhibition, hits mostly activators. Huh7 Rab9 promoter-luciferase reporter, luminescence, 24 h; further: potency means the concentration at half of the fitted maximal effect; % of control where 0% means no effect; nearly all actives have a fitted effect of over 60% in size
#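 Huh7 cells stably carrying Rab9 promoter–luciferase reporter, plated 1500 cells/well, compound added after 2 h and incubated 24 h at 37 °C; luciferase luminescence then read after 10 min with detection reagent.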
# BRCA1 expr up: increases BRCA1 expression; AID 624202; Potency, µM (series often up to 46.1 µM), for inactives: top-dose activation, usual class: activators; MCF7-BRCA1-FFLuc reporter, luminescence, 48 h; response scale: scaled: vehicle 0%, 10 µM genistein 100%; 380,000 tested, 1.1% active; further: potency means the concentration at half of the fitted maximal effect; nearly all actives have a fitted effect of over 80% in size; some results filed as inactive show a strong effect at the top dose
#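 First, MCF7-BRCA1-FFLuc cells (2000/well) attach for 2 h; next, compounds are pin-added and incubated 48 h at 37 °C; finally, luciferase reagent is added and luminescence read after 15 min.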
# RORgamma inh: blocks mouse ROR gamma transcriptional activity; 310,000 tested, 5.4% active; Potency, µM (titrated, usually from 53.6 µM), for the others: at the highest dose activity change, negative = inhibition, most hits filed as inhibitors; Drosophila S2 Gal4-RORgamma UAS-luciferase reporter, 20 h; further: potency means the concentration at half of the fitted maximal effect; on the % scale 0 is the no-effect control and ±100 the full control effect; nearly all actives have a fitted effect of over 60% in size
# Target sequence (P51450 whole entry, looked up, the tested form may be a part): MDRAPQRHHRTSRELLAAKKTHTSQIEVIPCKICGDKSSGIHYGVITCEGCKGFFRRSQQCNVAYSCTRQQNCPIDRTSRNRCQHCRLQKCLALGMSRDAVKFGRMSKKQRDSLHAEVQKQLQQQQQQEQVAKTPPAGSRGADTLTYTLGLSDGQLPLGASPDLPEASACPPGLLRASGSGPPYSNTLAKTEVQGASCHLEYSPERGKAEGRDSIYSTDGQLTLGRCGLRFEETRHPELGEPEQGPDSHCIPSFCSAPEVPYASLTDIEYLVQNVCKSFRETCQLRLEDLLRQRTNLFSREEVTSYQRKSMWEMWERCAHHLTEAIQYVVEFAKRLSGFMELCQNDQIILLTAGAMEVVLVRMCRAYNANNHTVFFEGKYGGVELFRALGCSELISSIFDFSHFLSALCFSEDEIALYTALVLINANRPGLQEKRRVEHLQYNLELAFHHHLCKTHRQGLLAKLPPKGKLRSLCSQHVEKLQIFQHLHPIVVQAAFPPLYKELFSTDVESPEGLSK
#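 Compounds are pin-transferred onto Drosophila Schneider cells expressing a copper-inducible Gal4–ROR gamma transactivation domain fusion. After 1 hr, copper sulfate is added to 700 uM final; luciferase is read 20 hr later.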
# NPC1 prom act: activates the NPC1 promoter. Huh7 NPC1 promoter luciferase reporter, 24 h. Potency, µM (series often up to 9.22 µM), inactives show at the highest dose activation, most hits filed as activators. 320,000 tested, 2.4% active;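 further: potency means the concentration at half of the fitted maximal effect; % of control where 0% means no effect; nearly all actives have a fitted effect of over 60% in size; reporter is driven by a mutant NPC1 promoter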
#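 Cells: Huh7 expressing luciferase under the NPC1 promoter, 1500/well. Seeded 2 h, compound added, incubated 24 h at 37 °C. Luciferase reagent, 10 min ambient, then luminescence.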
# PKM2 activator: PKM2 (human) enzyme activation. purified PKM2, Kinase-Glo ATP luminescence, activation; response scale: 0% is enzyme alone, no compound. Potency, µM (series often up to 57.5 µM), for inactives: top-dose activation, usual class: activators. 260,000 tested, 0.34% active; further: potency means the concentration at half of the fitted maximal effect; on the % scale 0 is the no-effect control and ±100 the full control effect; nearly all actives have a fitted effect of over 55% in size
# Target sequence (P14618 whole entry, looked up): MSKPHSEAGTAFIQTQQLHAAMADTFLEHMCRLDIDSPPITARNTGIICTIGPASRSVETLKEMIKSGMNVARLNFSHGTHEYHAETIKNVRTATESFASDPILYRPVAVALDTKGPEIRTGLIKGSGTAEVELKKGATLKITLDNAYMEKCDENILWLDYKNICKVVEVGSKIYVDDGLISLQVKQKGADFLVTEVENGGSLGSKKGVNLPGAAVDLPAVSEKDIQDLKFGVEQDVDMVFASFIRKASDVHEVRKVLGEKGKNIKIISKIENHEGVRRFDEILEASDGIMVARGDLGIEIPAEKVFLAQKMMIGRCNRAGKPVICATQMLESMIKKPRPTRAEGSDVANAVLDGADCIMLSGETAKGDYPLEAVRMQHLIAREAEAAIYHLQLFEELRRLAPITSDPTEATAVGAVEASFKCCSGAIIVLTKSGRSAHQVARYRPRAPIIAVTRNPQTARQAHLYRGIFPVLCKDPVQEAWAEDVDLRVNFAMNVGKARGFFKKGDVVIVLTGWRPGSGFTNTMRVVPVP
#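 Purified hPK-M2 (>95%) run at intermediate activity with 0.1 mM ADP and 0.5 mM PEP in 50 mM imidazole pH 7.2, KCl, MgCl2; 1 h room temperature. ATP formed read by Kinase-Glo luminescence; normalized to uninhibited and no-enzyme controls.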
# FLuc modulator: inhibits or activates purified firefly luciferase, miR-21 counter-screen. P08659. purified FLuc, Km substrates, luminescence inhibition. Potency, µM (top dose mostly 57.5 µM), without a hit: top-dose activity change, negative = inhibition, most hits filed as inhibitors. 360,000 tested, 6.9% active;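 further: potency means the concentration at half of the fitted maximal effect; plate controls were vehicle for no effect and reference inhibitor for full effect; nearly all actives have a fitted effect of over 55% in size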
#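 Purified P. pyralis luciferase (10nM final) with 10uM D-luciferin and 10uM ATP (Km levels) in 50mM Tris acetate pH 7.5, 10mM Mg acetate, 0.01% Tween-20, 0.05% BSA; qHTS 6-point titration, ~60 µM downward; luminescence read.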
# ELG1 genotox: induces genotoxicity in HEK293T cells with luciferase-tagged ELG1; HEK293T ELG1-luciferase reporter, luminescence, 16 h; Potency, µM (top dose mostly 46 µM), inactives show at the highest dose activity change, positive = activation, most hits filed as activators; 330,000 tested, 1.3% active; further: potency means the concentration at half of the fitted maximal effect; % of control where 0% means no effect; nearly all actives have a fitted effect of over 60% in size
#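 Screening used a luciferase reporter fused to human ELG1 in HEK293T cells. Luminescence was read on a CCD plate imager after 16 hr exposure and 30 min ONE-Glo incubation.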
# An asterisk follows results filed as active; ? = inconclusive; nt = no result given; [ ] = dose if it differs, or a comment. Unless noted, the call rests on the fitted dose curve; in most records, active means well fitted curve in the direction sought with a large enough effect; inconclusive means small, poorly fitted or top-dose-only effect, or another doubt; inactive means no such curve, though single readings can be large; an effect the other way counts as inactive or inconclusive. These rows are one share of the data; the hit share may differ from the screen's.
# Screens in order: Giardia kill	Gal4-VP16 FLuc	p53 reactivator	Rab9 promoter act	BRCA1 expr up	RORgamma inh	NPC1 prom act	PKM2 activator	FLuc modulator	ELG1 genotox
O=C(NC(=S)N1CCCc2ccccc21)c1ccc(Br)cc1
  3	?	14%	0%	-13%	-99%	-1%	-5%	?	3%
COC(=O)c1ccc2c(c1)N(Cc1nc(-c3cccc(C)c3)oc1C)C(=O)C1CCCN21 (centres undefined)
  nt	2%	-2%	2%	nt	1%	1%	-6%	-1%	9%
COc1cccc(C2CC(c3cccs3)=NN2C(=S)Nc2ccccc2)c1OC (centres undefined)
  5	2%	14%	1%	-27%	8.9µM*	-3%	6%	4%	-1%
CCN(CC)S(=O)(=O)c1cccc(NC(=O)COC(=O)c2cccs2)c1
  3	-10%	1%	2%	-22%	42%	-7%	2%	-9%	5%
CCN(CCNC(=O)C1CCN(S(C)(=O)=O)CC1)c1ccccc1
  17	-3%	0%	-4%	7%	-13%	-1%	4%	1%	-5%
O=C(Nc1nc(-c2cccs2)cs1)c1cccc(S(=O)(=O)N2CCCCCC2)c1
  -11	?	?	?	-51%	52%	-8%	-1%	15µM*	9%
Cc1ccc(NC(=O)CN2C(=O)N/C(=C/c3ccc4c(c3)OCCO4)C2=O)cc1
  -7	5%	8%	0%	-21%	-44%	3%	nt	-6%	9%
O=[N+]([O-])c1cc(C(F)(F)F)ccc1N1CCCNCC1
  -14	-1%	3%	12%	1%	11%	0%	-10%	-3%	1%
O=C(COc1ccccc1-c1ccccc1)N/N=C/c1cccc2ccccc12
  ?	-18%	0%	-16%	-88%	-4%	-17%	-1%	4%	5%
O=c1c(-c2ccc(Cl)cc2)nc2cnc(Nc3ccccc3)nc2n1C1CC1
  nt	2%	nt	nt	nt	-17%	nt	nt	nt	nt
Cc1ccc(/C=C2/NC(=O)N(Cc3ccccc3F)C2=O)o1
  1	?	-6%	0%	-22%	?	6%	3.5µM*	1%	-1%
C=CCSc1nc(C)c(Cc2cccc3ccccc23)c(=O)[nH]1
  ?	-25%[10 µM]	-2%	-6%[1.84 µM]	-10%	24%	-3%	0%	6%	-3%
CCN(C(=O)CSc1ccc2c(c1)OCCO2)C1CCS(=O)(=O)C1 (centres undefined)
  14	0%	-2%	5%	0%	3%	10%	-6%	-2%	-6%
O=c1c2ccccc2[nH]c(=S)n1CCCN1CCN(c2ccccc2)CC1
  -4	10µM*	7%	1%	-8%	7.9µM*	-5%	nt	5%	-11%
CC(NC(=O)COC(=O)Cc1ccccc1[N+](=O)[O-])c1ccccc1 (centres undefined)
  -10	-4%	-3%	0%	60%	35%	-4%	-1%	-11%	3%
CCOC(=O)c1c(-c2ccc(Cl)cc2)cn2ccccc12
  -7	-16%	-2%	3%	-2%	-12%	-1%	-1%	1%	-2%
COCCCN1C(=O)C(=O)/C(=C(/O)c2ccc(OC)cc2C)C1c1cccnc1 (centres undefined)
  8	0%	0%	2%	1%	-7%	-2%	-6%	-8%	3%
COc1cc(C(=O)Nc2cc(C)nn2-c2ccccc2)cc(OC)c1OC
  9	26%	-4%	4%	-28%	-24%	0%	nt	-1%	?
CCOc1cc(/C=C2/NC(=O)N(CC(=O)Nc3cccc(C)c3)C2=O)ccc1OC
  3	-10%	0%	-5%	-23%	0%	1%	-6%	-1%	8%
O=C(Nc1cccc2ccccc12)c1cn(-c2ccccc2)nc1-c1cccs1
  20	6%	2%	-4%	3%	0%	4%	-5%	?	1%

# Shown as a hit in RORgamma inh, among the entries above:
compound	p53 reactivator	Rab9 promoter act	BRCA1 expr up	RORgamma inh
COc1cccc(C2CC(c3cccs3)=NN2C(=S)Nc2ccccc2)c1OC (centres undefined)	14%	1%	-27%	8.9µM*
O=c1c2ccccc2[nH]c(=S)n1CCCN1CCN(c2ccccc2)CC1	7%	1%	-8%	7.9µM*

# (listing goes on)
# Screens in order: Giardia kill	Gal4-VP16 FLuc	p53 reactivator	Rab9 promoter act	BRCA1 expr up	RORgamma inh	NPC1 prom act	PKM2 activator	FLuc modulator	ELG1 genotox
CCOC(=O)c1cc(C#N)c(N2CCCC2)nc1-c1ccccc1
  16	-2%	13%	4%	-32%	-13%	4%	-4%	-1%	-3%
O=C(CCn1c(=S)[nH]c2ccccc2c1=O)NCCCN1CCCC1=O
  12	-1%	-7%	-2%	1%	-4%	-6%	3%	-1%	0%
Cc1cc(-c2csc(NC(=O)c3ccc(=O)[nH]c3)n2)c(C)n1Cc1ccccc1
  9	0%	0%	-7%	-16%	-12%	-2%	-6%	-7%	-7%
Cc1ccc(SCCNC(=O)/C=C/c2ccc(Cl)cc2)cc1
  -3	-15%	6%	5%	0%	-7%	8%	-19%	2%	0%
Clc1ccc(Oc2nc3ccccc3n3cccc23)cc1
  -19	14%	-1%	-2%	-46%	?	-11%	-2%	1%	-3%
c1ccc2[nH]c(NC3=NCCC3)nc2c1
  -5	11µM*	2%	0%	-5%	2.8µM*	-1%	0%	1%	0%
COc1ccc(C(=O)OCC(=O)NC(C)CCc2ccccc2)c(OC)c1 (centres undefined)
  -14	1%	-2%	-2%[1.84 µM]	-37%	-3%	-8%	nt	0%	-4%
C=CCn1c(CCNC(=O)c2ccc(Cl)c(Cl)c2)nnc1SCCOc1ccc(OC)cc1
  13	?	-5%	0%	-51%	?	2%	-1%	-6%	-10%
Cn1nc(C(=O)Nc2ccc(Br)cc2)cc1C(=O)Nc1ccc(Br)cc1
  -4	-3%	9%	8%	-42%	1%	0%	-6%	1%	2%
Cc1cc(C)cc(-n2c(=O)c3sccc3n(CC(=O)NCc3ccco3)c2=O)c1
  7	-2%	-19%	1%	1%	-30%	0%	3%	14%	0%
CSc1ncc(C(=O)Nc2cccc(S(N)(=O)=O)c2)n1-c1ccccc1
  -1	-7%	-5%	1%	-16%	-1%	-2%	1%	1%	2%
COc1ccc(OC)c(/C=N/NC(=O)c2csc3ccccc23)c1
  ?	0%	-4%	-8%	-44%	13µM*	-4%	5%	?	1%
COc1ccc(C2c3c(-c4cc(Cl)c(C)cc4O)n[nH]c3C(=O)N2Cc2cccnc2)cc1OC (centres undefined)
  12	-2%	-13%	1%	-38%	-42%	-3%	-5%	4%	-6%
N#Cc1ccccc1Cn1c(=O)n(Cc2ccc(C(=O)NCc3ccco3)cc2)c(=O)c2sccc21
  -24	12%	3%	0%	-15%	-5%	-4%	10%	2%	2%
CN(C)CCCNc1cn[nH]c(=O)c1Cl
  1	8%	1%	-1%	8%	-14%	-4%	6%	1%	0%
CC12CCC(C/C1=N\N=C1\NC(=O)/C(=C\c3cccc(Br)c3)S1)C2(C)C (centres undefined)
  5	11µM*	3%	-7%	-62%	10µM*	-1%	0%	?	-2%
Cc1ccccc1OCC(=O)Nc1sc2c(c1C#N)CCC2
  19	-4%	2%	26%	42%	-25%	19%	-3%	2%	-1%
COc1cc(C)c(NC(=S)Nc2cccc(Cl)c2)cc1OC
  24	-30%	-16%	-4%	-33%	?	-2%	-4%	4%	0%
CCOC(=O)c1ccc(COC(=O)CCc2nc3ccccc3[nH]c2=O)o1
  -2	2%	2%	1%	-1%	12%	-1%	-1%	-1%	-1%
Nc1nc(Nc2ccccc2F)nc(NC2CCCCC2)c1[N+](=O)[O-]
  -1	-21%	-16%	-3%	-68%	17%	-4%	nt	-4%	2%
COc1ccc(S(=O)(=O)N(CCCN2CCOCC2)Cc2cccc(OC)c2OC)cc1
  21	1%	-4%	1%	-38%	-33%	-3%	-3%	3%	-9%
COc1ccc(Cl)cc1NC(=O)C(C)N(C)Cc1ccc(C(F)(F)F)cc1 (centres undefined)
  -1	?	8%	-5%	-39%	-26%	-6%	11%	-1%	13%

# Of the compounds above, 2 contain a CF3 group:
# Screens in order: Giardia kill	Gal4-VP16 FLuc	p53 reactivator	Rab9 promoter act	BRCA1 expr up	RORgamma inh	NPC1 prom act	PKM2 activator	FLuc modulator	ELG1 genotox
O=[N+]([O-])c1cc(C(F)(F)F)ccc1N1CCCNCC1
  -14	-1%	3%	12%	1%	11%	0%	-10%	-3%	1%
COc1ccc(Cl)cc1NC(=O)C(C)N(C)Cc1ccc(C(F)(F)F)cc1 (centres undefined)
  -1	?	8%	-5%	-39%	-26%	-6%	11%	-1%	13%
